# UCH37 inh – blocks the human deubiquitinase UCH37; Q9Y5K5; purified proteasome/UCH37, Ub-AMC cleavage fluorescence; inhibition, % (concentration not given with the values); hit rate 0.33% among 330,000; AID 588478;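 active = mean of two replicates above 20%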;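 also: 0% = compound-free wells with enzyme and 100% = wells lacking proteasome; stock transfer was 100 nL into about 20 µL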
# Target sequence (Q9Y5K5 whole entry, looked up): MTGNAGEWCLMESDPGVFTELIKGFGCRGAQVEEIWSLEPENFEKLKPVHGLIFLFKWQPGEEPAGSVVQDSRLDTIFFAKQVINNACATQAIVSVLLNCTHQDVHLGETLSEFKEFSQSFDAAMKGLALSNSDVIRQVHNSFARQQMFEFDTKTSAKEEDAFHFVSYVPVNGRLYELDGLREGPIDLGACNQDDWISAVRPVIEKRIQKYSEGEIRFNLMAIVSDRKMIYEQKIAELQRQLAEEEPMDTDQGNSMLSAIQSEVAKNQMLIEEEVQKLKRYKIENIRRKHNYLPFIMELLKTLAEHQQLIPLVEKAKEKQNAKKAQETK
#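 Signal – fluorescence, ex 355 nm, em 460 nm · System – Proteasome-bound UCH37 · Input – 0.15 nM proteasome as dispensed · Timing – 30 min preincubation with enzyme, 25 min cleavage at room temperature · Read-out basis – percent inhibition of cleavage signal versus uninhibited and no-proteasome wells · Medium – Tris-HCl pH 7.4 with ATP-MgCl2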
# E coli growth – blocks Escherichia coli growth | OD600, 23 h; hits give low values | OD600 absorbance (test concentration not listed) | hit rate 0.21% among 330,000 | AID 1053175;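 active = OD600 absorbance below the run mean of sample wells minus 3.6 SD, in any replicate, cut at about 0.56 in these data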;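 also: stock transfer was 300 nL into about 60 µL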
# An asterisk follows results filed as active. A portion of the library; rates above refer to the full screens.
1: Cc1ccc(C=NNC(=O)C2COc3cc4ccccc4cc3O2)o1 (stereo not drawn)
2: O=c1oc2ccccc2c(O)c1C=Nc1ncccn1
3: NC(Cc1ccccc1Sc1ccccc1)=NO
4: Cc1cc(Cl)ccc1OCC(=O)NCC(=O)NN=Cc1ccco1
5: COc1cccc(C=NNC(=O)C(=O)Nc2ccccc2OC(F)(F)C(F)F)c1O
6: CC(=O)Nc1ccccc1NC(=O)CC(C)=NNC(=O)C(=O)Nc1cccc(Cl)c1C
7: CCNC(=S)NN=Cc1cc(C)ccc1C
8: COc1ccccc1NC(C)C(=O)NN=Cc1cccs1 (stereo not drawn)
Assay by compound	1	2	3	4	5	6	7	8
UCH37 inh	-1.3	3.2	3.9	1.5	0.9	0.5	5.0	4.7
E coli growth	0.727	0.718	0.688	0.71	0.674	0.617	0.682	0.634

9: CCOC(=O)NC(=O)C(C#N)=NNc1ccc(Cl)cc1
10: O=C(CC1SC(=NS(=O)(=O)c2ccccc2)N(c2ccccc2)C1=O)Nc1ccc(F)cc1 (stereo not drawn)
11: CC(=NNC(=O)CNC(=O)COc1ccccc1)c1ccco1
12: COc1cc(C=c2sc3n(c2=O)C(c2ccccc2)C(c2ccccc2)=NN=3)ccc1O (stereo not drawn)
13: Cc1ccc(S(=O)(=O)N2CCN(CC(=O)NN=C/C=C/c3ccccc3)CC2)cc1
14: Cc1cccc(-c2n[nH]c(=S)n2N=Cc2cccs2)c1
15: O=C(NN=Cc1c[nH]c2ccccc12)c1cc2ccccc2o1
16: Cc1occc1C(=O)NN=C/C=C\c1ccccc1[N+](=O)[O-]
Assay by compound	9	10	11	12	13	14	15	16
UCH37 inh	8.0	1.4	1.8	-3.6	7.6	3.5	-13.0	5.2
E coli growth	0.696	0.741	0.71	0.802	0.686	0.698	0.658	0.645

17: O=C(O)c1cccc(Cn2c(Cl)c(C=NNC(=O)c3cc4ccccc4cc3O)sc2=O)c1
18: Cc1cccc(C=NNc2ccc3ccccc3n2)c1
19: O=C(O)c1ccc(C=NNc2nc(N3CCCCC3)nc(N3CCCCC3)n2)cc1
20: Cc1n[nH]c(C)c1CCC(=O)NN=Cc1c[nH]c2ccccc12
21: O=C(NN=Cc1ccco1)c1csc2c1CCCC2
22: CN1CCc2c(sc(N=Cc3cc(C(C)(C)C)ccc3O)c2C#N)C1
23: COc1ccc(C=NNC(=O)c2cc(C(C)(C)C)[nH]n2)cc1COc1ccc(F)cc1F
24: NC(=NOC(=O)Cc1ccc([N+](=O)[O-])cc1)c1ccccn1
Assay by compound	17	18	19	20	21	22	23	24
UCH37 inh	22.4*	-9.3	5.3	6.2	3.8	1.3	1.0	2.6
E coli growth	0.611	0.658	0.645	0.696	0.633	0.661	0.718	0.686

25: Cc1nn(-c2cccc(C(F)(F)F)c2)c(Cl)c1C=Nn1cnnc1
26: CCOc1cc(C=NNC(=O)c2cccnc2)ccc1O
27: CCOc1cc(C=Nn2cnnc2)ccc1OCC(=O)Nc1ccccc1OC
28: CCOC(=O)c1cc(CC)sc1N=CC1=C(O)CCCC1=O
29: Cn1cccc1CC(=O)NN=Cc1cccs1
30: COc1ccc(CCNC(=O)CC(C)=NNC(=O)C(c2ccccc2)c2ccccc2)cc1OC
31: COc1cc([N+](=O)[O-])cc(C=NNC(=O)Cn2nccc2C)c1O
32: CC(=NNC(=S)Nc1ccc(C)c(C)c1)c1ccc(N2CCOCC2)cc1
Assay by compound	25	26	27	28	29	30	31	32
UCH37 inh	-4.0	9.2	1.0	-0.2	-3.0	1.7	16.4	-9.5
E coli growth	0.734	0.714	0.781	0.66	0.758	0.659	0.7	0.739

# In a second layout: two of the compounds above
no.	SMILES	UCH37 inh	E coli growth
29	Cn1cccc1CC(=O)NN=Cc1cccs1	-3.0	0.758
31	COc1cc([N+](=O)[O-])cc(C=NNC(=O)Cn2nccc2C)c1O	16.4	0.7

# Remaining list, next part:
33: O=C(CN1CCN(Cc2ccccc2)CC1)NN=Cc1ccco1
34: S=c1[nH]nc(COc2ccccc2)n1N=C/C=C/c1ccco1
35: CC(=NNc1cc(N2CCOCC2)ncn1)c1cccc([N+](=O)[O-])c1
36: COc1ccc(NN=C(C)c2cnnc(-c3ccccc3)n2)cc1
37: O=[N+]([O-])c1cccc(C=NNC2=NS(=O)(=O)c3ccccc32)c1
38: CCCC(=NNC(=O)c1csc(C)c1C)c1ccc(Cl)s1
39: COC(=O)c1ccc(NN=Cc2cc([N+](=O)[O-])cc(OC)c2O)cc1
40: Cc1ccccc1C(=O)Nc1nnc(CC(=O)NN=Cc2cn(Cc3ccccc3)c3ccccc23)s1
Assay by compound	33	34	35	36	37	38	39	40
UCH37 inh	7.5	11.4	0.9	5.8	11.6	4.0	8.2	5.7
E coli growth	0.636	0.666	0.703	0.66	0.667	0.752	0.735	0.728

41: O=C(NN=Cc1ccccc1OC(=O)c1ccc2c(c1)OCO2)c1ccccc1
42: Oc1ccccc1C=NNc1cccc2cccnc12
43: Nc1nonc1-n1nnc(C(=O)NN=Cc2ccncc2)c1CSc1ccc(Cl)cc1
44: COc1ccccc1C=c1sc2nc(-c3ccccc3OC)nn2c1=O
45: Cn1cc([N+](=O)[O-])c(C(=O)NN=Cc2ccccc2)n1
46: COc1ccc(C=NNC(=O)c2ccc3nc[nH]c3c2)c(OC)c1OC
47: O=C(NN=Cc1ccncc1)c1cc2c(ccc3ccccc32)o1
48: CC(=O)N(N=C1Sc2ccccc2C1=O)c1ccccc1C
Assay by compound	41	42	43	44	45	46	47	48
UCH37 inh	2.0	1.9	0.9	0.0	1.5	4.6	-1.3	83.2*
E coli growth	0.695	0.668	0.71	0.676	0.676	0.631	0.73	0.685

49: CCC(CO)N=C1CC(C)(C)CC(=O)/C1=C(\O)CCCN1C(=O)c2ccccc2C1=O (stereo not drawn)
50: ON=Cc1cc(Br)cc(Br)c1OCc1ccccc1
51: C(=Nc1nc2ccccc2n1Cc1ccccc1)c1cccs1
52: COc1ccc(C=NNc2nccnc2Cl)cc1
53: CS(=O)(=O)c1ccc2nc(NC(=O)c3ccc(N4C(=O)CCC4=O)cc3)sc2c1
54: COc1ccccc1C=NNC(=O)c1nnn(-c2nonc2N)c1-c1cccs1
55: CSc1nnc(C(C)(C)C)c(=O)n1N=Cc1ccccc1O
56: COc1ccc(C=NN2CCN(C)CC2)cc1O
Assay by compound	49	50	51	52	53	54	55	56
UCH37 inh	4.4	2.6	4.6	8.1	1.5	-12.9	3.1	1.7
E coli growth	0.661	0.704	0.592	0.601	0.656	0.664	0.662	0.698

# Another view of part of the listing above.
cpd	SMILES	UCH37 inh	E coli growth
51	C(=Nc1nc2ccccc2n1Cc1ccccc1)c1cccs1	4.6	0.592
52	COc1ccc(C=NNc2nccnc2Cl)cc1	8.1	0.601
53	CS(=O)(=O)c1ccc2nc(NC(=O)c3ccc(N4C(=O)CCC4=O)cc3)sc2c1	1.5	0.656

# The list continues:
57: COc1ccc(-c2cc(=Nc3nc(-c4ccccc4)c(C)s3)c3ccccc3o2)cc1O
58: S=c1[nH]nc(C2CCCCC2)n1N=Cc1ccncc1
59: CCOc1ccc(NC(=O)CC(C)=NNC(=O)COc2ccc(Br)cc2C)cc1
60: COc1cc(C=NNC(=S)NC2CC3C=CC2C3)cc(OC)c1OC (stereo not drawn)
61: COc1ccc(C=NNC(=O)C2C(=O)NCC2c2ccccc2)c(OC)c1 (stereo not drawn)
62: O=C(O)COc1ccccc1C=Nn1c(C2CCCCC2)n[nH]c1=S
63: CCN(CC)S(=O)(=O)c1ccc(NN=Cc2ccccc2OCC(=O)O)c([N+](=O)[O-])c1
64: CC(=NNC(=O)c1cc(-c2ccc(Cl)s2)[nH]n1)c1ccco1
Assay by compound	57	58	59	60	61	62	63	64
UCH37 inh	2.7	5.1	7.6	3.2	7.4	1.5	8.3	1.4
E coli growth	0.805	0.717	0.666	0.688	0.667	0.626	0.67	0.617

65: O=C(O)c1cccc(Cn2c(Cl)c(C=NNC(=O)c3ccco3)sc2=O)c1
66: Cc1ccc(-c2cc(C(=O)NN=Cc3cccnc3)c3ccccc3n2)cc1C
67: O=C(NN=Cc1ccc2c(c1)OCO2)c1ccc2c(c1)OCO2
68: CC(=NNc1ccc([N+](=O)[O-])cc1[N+](=O)[O-])c1cccnc1
69: O=C(O)c1cccc(-c2ccc(C=c3sc4nc5ccccc5n4c3=O)o2)c1
70: C[N+]1(CCNC(=O)C=NO)CCCCC1
71: Nc1nnc(CC(=O)NN=Cc2ccccc2OCc2ccc(F)cc2)s1
72: Cc1ccc(C)c(S(=O)(=O)NN=C2CCCc3ccccc32)c1
Assay by compound	65	66	67	68	69	70	71	72
UCH37 inh	12.2	-9.0	-79.9	4.2	4.7	1.7	0.2	-0.8
E coli growth	0.652	0.644	0.711	0.65	0.663	0.735	0.631	0.735

73: CCc1ccc(C=Nn2c(COc3ccccc3)n[nH]c2=S)cc1
74: O=C(CSc1ncccn1)NN=Cc1ccc(OC2CSC2)cc1
75: C=C(C)C1CC=C(C)C(=NNC(=O)CNc2cccc3ccccc23)C1 (stereo not drawn)
76: Cc1nc(N)sc1C(=O)NN=Cc1c[nH]c2ccccc12
77: COc1ccccc1-c1nc2sc(=Cc3cccs3)c(=O)n2n1
78: COc1ccc(C=NNC(=O)c2nc(-c3ccccc3)cc(-c3ccccc3)n2)cc1
79: CCC(=NNC(=O)c1ccncc1)C12CC3CC(CC(C3)C1)C2
80: O=C(NN=Cc1ccc(Cl)cc1)c1cc2c(s1)-c1ccccc1CC2
Assay by compound	73	74	75	76	77	78	79	80
UCH37 inh	4.0	7.2	-13.5	8.6	3.2	-3.3	6.5	-113.8
E coli growth	0.665	0.626	0.673	0.748	0.677	0.697	0.701	0.799

81: CC(=NNC(=O)c1cccc(S(=O)(=O)N2CCCC2)c1)c1ccccc1F
82: CC(=NNc1ccc(C#N)cc1[N+](=O)[O-])c1ccc(C)o1
83: C=CCN=c1scc(-c2ccccc2)n1N=Cc1ccccn1
84: CC(C)(C)c1[nH]c2ccccc2c1C=NO
85: O=C(O)c1ccc(NN=Cc2c[nH]c3ccccc23)cc1
86: Cc1nn(C)c(C)c1C=NNC(=O)C(C)(C)Oc1ccc(Cl)cc1
87: CC(C)NC(=S)NN=Cc1ccc(N2CCOCC2)cc1
88: CCCc1c(C(=O)NN=Cc2ccc(OCc3ccccc3)c(OC)c2)nnn1-c1nonc1N
Assay by compound	81	82	83	84	85	86	87	88
UCH37 inh	2.0	6.8	0.3	0.7	-14.0	2.5	-90.6	-16.1
E coli growth	0.708	0.716	0.656	0.683	0.629	0.674	0.674	0.729

# Some of these compounds in order of the E coli growth value, falling:
81: CC(=NNC(=O)c1cccc(S(=O)(=O)N2CCCC2)c1)c1ccccc1F
84: CC(C)(C)c1[nH]c2ccccc2c1C=NO
87: CC(C)NC(=S)NN=Cc1ccc(N2CCOCC2)cc1
Assay by compound	81	84	87
UCH37 inh	2.0	0.7	-90.6
E coli growth	0.708	0.683	0.674

# The listing continues:
89: O=C(OCC(=O)c1ccc[nH]1)c1ccc(S(=O)(=O)N2CCCCC2)cc1
90: COc1ccc(C=NN=C2CC3CCC2(C)C3(C)C)cc1O (stereo not drawn)
91: C/C(C=NNC(=O)c1nnn(-c2nonc2N)c1C(C)C)=C\c1ccccc1
92: CC(=O)Nc1ccc(C=NNC(=O)CNC(=O)c2ccccc2)cc1
93: CNC(=S)NN=Cc1cc(C)ccc1C
94: COc1ccc(N(CC(=O)NN=Cc2ccccc2F)S(=O)(=O)c2ccccc2)cc1
95: CC(NC(=O)C(=O)NN=Cc1ccc([N+](=O)[O-])cc1)c1ccccc1 (stereo not drawn)
96: Cc1ccc(C(=O)NN=C(CC(=O)c2cccs2)C(F)(F)F)cc1
Assay by compound	89	90	91	92	93	94	95	96
UCH37 inh	1.1	-0.1	5.5	3.8	6.7	1.7	3.8	5.8
E coli growth	0.75	0.722	0.711	0.685	0.663	0.694	0.629	0.593

97: NN=C(c1ccccc1)C12CN3CN(CN(C3)C1)C2
98: O=C(CCC(=O)NC1CCCCC1)NN=Cc1ccncc1
99: CC(=NNC(=S)NC1CCCCC1)c1c(F)cccc1F
100: COc1ccc(CC(C)=NNc2nc(C)cc(=O)[nH]2)cc1
101: CN(c1ccc([N+](=O)[O-])cc1C=NNC(=O)COc1ccccc1)C1CCCCC1
102: COc1ccc(O)c(C=NNC(=O)CCn2nnc3ccccc32)c1
103: CC(=NN(Cc1ccccc1)c1ccccc1)c1ccncc1
104: CCOc1ccc(C=NNC2=NCCCCC2)cc1
Assay by compound	97	98	99	100	101	102	103	104
UCH37 inh	3.1	3.6	3.5	0.6	-7.9	-21.9	5.6	0.6
E coli growth	0.716	0.664	0.637	0.688	0.715	0.673	0.625	0.686
